AID504770 – growth inhibition of E. coli YBA685, primary screen, V. cholerae RctB inhibitors; E. coli YBA685 rctB-dependent plasmid, OD600 growth, 3 h; stronger effect = lower value; z-score (no concentration beside the values); AID 504770, 2011; 130,000 compounds, 0.27% hits;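 active means z-score under -2 on both plates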;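 further: wells of about 30 µL received 100 nL stock; score is relative to mean and SD of the test wells; the first replicate is given; strong numbers were not always called active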
CapD inh – Bacillus anthracis CapD inhibitors, primary screen, biochemical, fluorescence intensity; z-score (no concentration beside the values); CapD gamma-glutamyltranspeptidase (Bacillus anthracis Ames Ancestor); AID 492967, 2010; purified CapD enzyme, fluorescence intensity read-out; stronger effect = lower value; some hits fall short of the stated cut; 140,000 compounds, 0.23% hits;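 active means z-score under -4 in either of two replicates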;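 further: stock transfer was 100 nL into about 40 µL; score is relative to mean and spread of the plate; one replicate is shown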
Numbers without * were called inactive; nt = not tested or not shown; & = joins results of further samples. A portion of the library, so the mix of outcomes need not match the whole.

Values run as follows: AID504770 | CapD inh
COC(=O)C(F)(F)Sc1c(C)[nH]c2ccccc12
  -0.75 | 0.32
CN1CN=C(SCc2ccccc2Cl)NC1
  nt | -1
O=C(C(c1ccccc1)c1ccccc1)N(Cc1ccco1)Cc1cccs1
  -0.75 | 0.17
CC1CCCCC1N(C)C1CCN(CCNC(=O)/C=C/c2ccccc2)CC1 (stereo not given)
  -0.05 | 0.11
CC(=O)Nc1ccc(S(=O)(=O)N2CCCC2C(=O)O)cc1 (stereo not given)
  -1.5 | -0.05
N=C(N)SCc1cccc(CSC(=N)N)c1F
  1 | 0.95
CC(C)(C)C1CCc2c(sc3[nH]c(=S)n(C4CCCCC4)c(=O)c23)C1 (stereo not given)
  nt | 0.29
O=C(Cn1c2ccccc2c2cn[nH]c(=O)c21)NCc1ccco1
  -0.05 | 9.4
O=C(Nc1cccc(Cl)c1)NC1(C(=O)Nc2ccc3c(c2)OCCO3)CCCCC1
  0.15 | nt
O=C(NCCc1ccc(Cl)cc1)c1ccc2c(Cl)c3c(nc2c1)CCCC3
  -0.25 | 58
Cc1cc(=O)n2ncnc2n1COCCO
  nt | 0.13
O=C(NCCN1CCN(c2nccc(C(F)(F)F)n2)CC1)NC1CCCCC1
  -0.7 | 6
O=c1sc2ccccc2n1CCOc1ccccc1
  0.4 | 0.16
CC(=O)Nc1cc(C(=O)NCCN(C)C)ccc1Sc1ccc(C)cc1
  2.1 | -1.1
O=C(OCC#Cc1ccccc1)N1CCN(c2ccc(F)cc2)CC1
  nt | 0.68

Looked up by structure from the entries so far (five):
Values run as follows: AID504770 | CapD inh
CC(C)(C)C1CCc2c(sc3[nH]c(=S)n(C4CCCCC4)c(=O)c23)C1 (stereo not given)
  nt | 0.29
CN1CN=C(SCc2ccccc2Cl)NC1
  nt | -1
O=C(Cn1c2ccccc2c2cn[nH]c(=O)c21)NCc1ccco1
  -0.05 | 9.4
Cc1cc(=O)n2ncnc2n1COCCO
  nt | 0.13
CC1CCCCC1N(C)C1CCN(CCNC(=O)/C=C/c2ccccc2)CC1 (stereo not given)
  -0.05 | 0.11

Going on with the list.
Values run as follows: AID504770 | CapD inh
CCCCCCc1ccc(C(=O)NNC(=O)c2c(-c3c(Cl)cccc3Cl)noc2C)cc1
  nt | -1.3
O=C(O)C1CC1C(=O)N1CCN(c2ccc([N+](=O)[O-])cc2)CC1 (stereo not given)
  nt | -2.8
O=C(NC1CCCC1)C(c1ccccn1)N(C(=O)c1ccc2c(c1)OCCO2)c1ccccc1 (stereo not given)
  -0.2 | nt
Cn1c(SCC(=O)N2CCCC2)nnc1-c1c[nH]c2ccccc12
  -0.3&-0.35 | 0.095&0.8
COc1cc(/C=C2/C(=O)N(c3ccccc3)N=C2C)ccc1OS(=O)(=O)c1ccccc1
  nt | -0.48
Cc1ccccc1CN1C(=O)C(O)(CC(=O)c2ccc(N)cc2)c2ccccc21 (stereo not given)
  1.5 | 0.23
COc1oc(-c2ccccc2)nc1C(F)(F)F
  -0.55 | 0.62
COc1cc2c(cc1OC)C(c1cc3cc4c(cc3[nH]c1=O)OCO4)N(C(=O)c1ccco1)CC2 (stereo not given)
  0.05 | nt
CCOC(=O)c1cc(-c2ccc3c(c2)OCO3)nn1-c1cccc(C(=O)O)c1
  -0.7 | nt
Cc1cc(SCC(=O)N2CCCCC2)nc2ccccc12
  0.95 | 1.1
Cc1ccc(C(=O)Cc2cc3ccccc3oc2=O)cc1
  -0.45 | -0.18
Cc1cc(C)c2c(n1)sc1c(=O)n(CC(=O)O)cnc12
  -0.05 | nt
C=CCN1C(=O)/C(=C/c2ccco2)C(=O)NC1=S
  -0.4 | -4.7*
CCc1ccc(-c2nn(Cc3ccccc3)cc2C(=O)N2CCN(CCN3CCCC3)CC2)cc1
  -0.3 | nt
Cc1ccccc1C(=O)NC(=S)Nc1ccc(-c2nc3ccccc3o2)cc1
  -1.1 | -0.49

Values run as follows: AID504770 | CapD inh
CCC(=O)N1CCN(c2ccc(NCc3ccccc3)cc2)CC1
  -0.7 | 1.3
CC1CCCC(C)N1C(=O)COC(=O)c1cc(=O)[nH]c2ccccc12 (stereo not given)
  0.1 | nt
CCn1cc(C(=O)c2ccccc2O)cc1-c1nc2cc(Cl)ccc2c(=O)[nH]1
  1.4 | nt
O=C(Nc1cccc(Br)c1)c1cccc2c1C(=O)c1ccccc1-2
  -1.4 | 17
N#CCC(=O)NC(=O)NC12CC3CC(CC(C3)C1)C2
  3.1 | -0.77
COc1ccc(Cc2noc(N)n2)cc1
  -0.4 | -0.14
CC(NC(=O)Cc1cccs1)C(c1cccs1)N1CCOCC1 (stereo not given)
  -0.2 | -0.27
O=C(O)/C=C/C(=O)Nc1ccc(N2CCCCC2)cc1
  1.1 | nt
Cc1cc(C(=O)CSc2nccn2Cc2ccccc2)c(C)n1-c1ccc(S(N)(=O)=O)cc1
  0.05 | nt
O=C(O)CCCN1C(=O)C(=O)/C(=C(/O)c2ccccc2)C1/C=C/c1ccccc1 (stereo not given)
  -0.35 | nt
CCC(C)c1ccc(Oc2ccc(S(=O)(=O)N3CCCCC3)cn2)cc1 (stereo not given)
  -0.3 | nt
O=C(O)c1ccc(C(=O)O)c(C(=O)c2ccccc2)c1
  0.7 | -0.14
O=S(=O)(NCCCN1CCN(Cc2ccccc2)CC1)c1cccc(Cl)c1Cl
  -0.1 | -0.32
Cc1cc(NC(=O)NC2CC(=O)N(C3CCCC3)C2)ccc1Br (stereo not given)
  -0.4 | -0.47
CCCCNC(=O)c1cnc2n(c1=O)CCS2
  -0.2 | nt

Values run as follows: AID504770 | CapD inh
CCOC(=O)C1=C(N)OC2=C(C(=O)CC(C)(C)C2)C1c1ccc(Cl)cc1 (stereo not given)
  nt | -0.34
CSC1=NC(=Nc2cccc(C(F)(F)F)c2)C2(CCCCC2)N1c1ccc(Br)cc1
  nt | -0.26
O=C(c1cn[nH]c1)c1cc(F)ccc1O
  -0.55 | -1.2
Cc1c(NC(=O)/C=N/O)c(=O)n(-c2ccccc2)n1C
  nt | -0.64
O=C(Cn1cnc2ccccc21)OCc1ccc(Br)cc1
  0.6 | nt
O=c1[nH]c(CN2CCN(Cc3ccccc3)CC2)nc2sc3c(c12)CCC3
  0.5 | nt
CC1=CC(=O)C(C(=O)/C=C/c2cn(-c3ccccc3)nc2-c2cc3ccccc3o2)C(=O)O1 (stereo not given)
  0.65 | nt
O=C(Cn1cnc(S(=O)(=O)N2CCCCC2)c1)Nc1ccccc1
  -0.4 | 0.17
CSc1nc(C)nc(Nc2ccccc2)c1C#N
  0.1 | 1.4
Cc1sc2nc(CC(=O)NN)[nH]c(=O)c2c1C
  0.85 | nt
COc1ccc(-c2cc(-c3ccccc3)c(-c3ccccc3)nn2)cc1CN1CCOCC1
  -0.4 | 0.11
COc1ccc(-c2ccc(CNC3CC3)o2)cc1Cl
  -0.5 | nt
COc1ccccc1NC(=O)CN(Cc1ccco1)C(=O)c1ccc(OC)c(OC)c1
  0.8 | nt
Cc1ccsc1C(=O)OCC(N)=O
  -3.9 | 0.15
CCCCNC(=O)c1cnn(-c2cccc(F)c2)c1-n1cccc1
  -1.7 | 0.16

Values run as follows: AID504770 | CapD inh
CN(Cc1ccccc1)C(=O)c1cc(-c2ccc(Cl)cc2)on1
  -0.05 | 7.1
CCN(CC)C1=N/C(=C/c2ccccc2)C(=O)N1c1ccc(Cl)cc1
  -0.1 | 28
COc1ccc([N+](=O)[O-])cc1NC(=O)c1sc2nc(C)nc(N3CCC(C)CC3)c2c1C
  nt | -0.16
O=C(NCc1ccncc1)c1cc2ccccc2nc1Cl
  -0.4 | -0.11
NS(=O)(=O)c1ccc(CNC(=O)c2ccc(=O)[nH]c2)cc1
  -0.35 | nt
c1ccc2c(c1)Nc1ccccc1S2
  -0.05 | 1
O=C1N/C(=C\c2ccccc2Cl)C(=O)N1Cc1ccc(Cl)cc1
  1.6 | -0.69
O=c1/c(=C/c2ccc([N+](=O)[O-])cc2)sc2n1C(c1ccccc1)C(c1ccccc1)=NN=2 (stereo not given)
  nt | -0.47
O=C1c2ccccc2C(=O)N1CC1OCc2ccccc2CO1
  -0.75 | -0.28
COc1ccc(/C=C2\SC(=S)N(CCCCCC(=O)N3CCN(C)CC3)C2=O)cc1
  1.2 | nt
N#CCCCSc1nnc(Cc2ccc3c(c2)OCO3)o1
  0.4 | nt
O=C(CN1C2=NCCCN2c2ccccc21)c1ccc(Br)cc1
  nt | -0.17
COc1ccc(OC)c(N2CC(O)(c3ccc(Cl)cc3)[N+]3=C2SCCC3)c1 (stereo not given)
  nt | 0.42
CCC(=O)Oc1cc2c(C)cc(=O)oc2cc1Cl
  -0.4 | 1.2
O=C(NCc1cccnc1)C1c2ccccc2C(=O)N1C1CCCCCCC1 (stereo not given)
  -0.2 | 0.29

Values run as follows: AID504770 | CapD inh
CCOc1ccc(C(=O)N2CC(=O)Nc3ccc(C)cc3C2c2ccccc2)cc1 (stereo not given)
  1.2 | -0.9
CC(C)CC(=O)Nc1sc2c(c1C#N)CCCCC2
  0.8 | 0.42
Cc1cc(C)nc(SCNC(=O)c2ccccc2)n1
  0.05 | -0.44
Cc1cc(C(=O)O)c(CSc2ncn[nH]2)o1
  -0.45 | -0.84
Cc1[nH]c(C(=O)NN)c(C)c1C(=O)NC1CCCCC1
  -0.35 | -0.025
O=C1C=CC2(C=C1)CC1(CCCCC1)N=C2SCc1ccccc1
  -0.95 | 0.34
OC(CNCC1CCCO1)COC(c1ccc(Cl)cc1)c1ccc(Cl)cc1 (stereo not given)
  0.15 | 0.095
CCN(CC)C(=O)CSc1nc2c(c(=O)n(C)c(=O)n2C)n1CC
  0.35 | 21
COC(=O)CCn1c(=O)c2cccn2c2ccc(F)cc21
  1.4 | 5.5
O=C(c1ccc(F)cc1)c1ccc([N+](=O)[O-])cc1
  nt | -0.22
COCC1=C(C(=O)OC)C(c2ccco2)C(C#N)=C(N)O1 (stereo not given)
  nt | -0.3
CC(C)=NNC(=O)CN(C1=NS(=O)(=O)c2ccccc21)c1ccccc1
  -1 | 0.02
O=[N+]([O-])c1cccc(-c2nc(-c3ccc(-c4[nH]c(-c5cccc([N+](=O)[O-])c5)nc4-c4ccccc4)cc3)c(-c3ccccc3)[nH]2)c1
  nt | -0.06
Cc1cc(C)c(C#N)c(SCc2nc(-c3ccc(OC(F)(F)F)cc3)no2)n1
  0.5 | 11
N#CC1=C(N)C(C#N)(C#N)C2(C(=O)Nc3ccccc32)C2CCCC=C12 (stereo not given)
  2.1 | -0.5

Values run as follows: AID504770 | CapD inh
CC(C)(CC(=O)O)CC(=O)N1CCN(c2ccccc2C#N)CC1
  nt | 25
CCOC(=O)c1sc(/N=C/N(C)C)nc1C
  -0.55 | nt
CN1CSC2=C(C#N)C(c3ccccc3)CC(=O)N2C1 (stereo not given)
  -0.25 | 1.2
CCOC(=O)c1c(NC(=S)NCc2ccccc2)sc2c1CC(C)(CC)OC2 (stereo not given)
  nt | -0.34
Cc1ccc(CNC(=O)c2cccc(Nc3nc4ccccc4n4cnnc34)c2)cc1
  1.9 | 0.16
O=P(C1=C(N2CCOCC2)/C(=C\c2ccccc2)CC1)(N1CCOCC1)N1CCOCC1
  -0.4 | nt
CCN(CC)S(=O)(=O)c1ccc(NC(=O)Cn2cnc3c2c(=O)n(C)c(=O)n3C)cc1
  -2.9 | -0.16
Nc1nnc(Sc2cc3c(cc2[N+](=O)[O-])C(=O)NC3=O)s1
  nt | 0.015
CSc1ncccc1C(=O)OCc1ccccc1F
  -0.5 | nt
Cc1[nH]nc(-c2ccc(O)cc2O)c1Oc1ccccc1
  -0.45 | -0.34
Cc1cccc(NC(=O)Cn2cnc3c(oc4ccccc43)c2=O)c1C
  -0.8 | -0.48
O=c1[nH]cnc2c1oc1ccccc12
  -0.35 | nt
COc1ccc(C2CC(=O)NC(NC(=O)CN3C(=O)c4ccccc4C3=O)=N2)cc1 (stereo not given)
  -0.85 | -0.74
CC12CC[C@H]3[C@@H](CCC4(O)C[C@H](O)CCC34/C=N/NC(=O)c3ccccc3Cl)C1(O)CCC2C1=CC(=O)OC1 (stereo not given in full)
  nt | -0.17
Cc1cc(I)c[nH]c1=O
  -0.1 | 0.32

Reprinted from the entries so far (three entries):
Values run as follows: AID504770 | CapD inh
COc1ccc(C2CC(=O)NC(NC(=O)CN3C(=O)c4ccccc4C3=O)=N2)cc1 (stereo not given)
  -0.85 | -0.74
CC12CC[C@H]3[C@@H](CCC4(O)C[C@H](O)CCC34/C=N/NC(=O)c3ccccc3Cl)C1(O)CCC2C1=CC(=O)OC1 (stereo not given in full)
  nt | -0.17
Cc1cc(I)c[nH]c1=O
  -0.1 | 0.32

(further entries)
Values run as follows: AID504770 | CapD inh
CCn1c(-c2ccc3c(c2)OCCO3)cnc1SCC(=O)c1ccc(CNC(C)=O)s1
  0.1 | nt
CCCn1c(OC)nc2c1c(=O)n(C)c(=O)n2C
  -0.1 | -0.11
CC1=Nc2ccccc2Sc2c1c(=O)n(-c1ccccc1)c1ccccc21
  0.05 | 6.2
N#Cc1ccc(OC(=O)c2ccc(Br)o2)cc1
  -0.15 | -0.77
O=C(CSc1nc2ccccc2[nH]1)OCC(=O)N1c2ccccc2Sc2ccccc21
  nt | -0.23
O=C(CCc1ccccc1)Nc1nnc(-c2ccccc2)o1
  0.45 | -0.32
O=C(CNC(=O)c1ccccc1)OC1CCCCC1
  -0.3 | 0.52
NC1=NN(c2cccc(C(=O)O)c2)C(=O)C1
  -1.1 | nt
O=C(Nc1ccc2c(c1)CCC2)C1CCCO1 (stereo not given)
  -0.1 | 0.01
O=C(CSc1nc2ccccc2o1)NC1CC1
  0.15 | nt
CC(C)Oc1cc(C(F)(F)F)nc2ccc(CSCCO)cc12
  nt | -0.16
CN(C(=O)CN1CCc2ccccc2C1)c1c(N)n(Cc2ccccc2)c(=O)[nH]c1=O
  -0.9 | nt
Cc1onc(-c2c(Cl)cccc2Cl)c1NC(=O)N1CCSCC1
  nt | 0.4

Source: PubChem
